# Bioassay records as filed in PubChem BioAssay.
# Six1-Eya2 inh: inhibitors of human Six1/Eya2 interaction | activity change, % (no concentration beside the values) | AlphaScreen GST-Six1/His-Eya2 binding, biochemical; stronger effect = lower value; control for the full effect not named in the record | Q15475+O00167 | 360,000 tested, 0.56% active; in the data active = activity change below about -65%; inconclusive = about -30% to -65%; inactive = above about -30%; note: % is set by controls: 0 for no effect and ±100 for the full control effect; compound concentration not given in the record
# Target sequence (O00167 whole entry, looked up): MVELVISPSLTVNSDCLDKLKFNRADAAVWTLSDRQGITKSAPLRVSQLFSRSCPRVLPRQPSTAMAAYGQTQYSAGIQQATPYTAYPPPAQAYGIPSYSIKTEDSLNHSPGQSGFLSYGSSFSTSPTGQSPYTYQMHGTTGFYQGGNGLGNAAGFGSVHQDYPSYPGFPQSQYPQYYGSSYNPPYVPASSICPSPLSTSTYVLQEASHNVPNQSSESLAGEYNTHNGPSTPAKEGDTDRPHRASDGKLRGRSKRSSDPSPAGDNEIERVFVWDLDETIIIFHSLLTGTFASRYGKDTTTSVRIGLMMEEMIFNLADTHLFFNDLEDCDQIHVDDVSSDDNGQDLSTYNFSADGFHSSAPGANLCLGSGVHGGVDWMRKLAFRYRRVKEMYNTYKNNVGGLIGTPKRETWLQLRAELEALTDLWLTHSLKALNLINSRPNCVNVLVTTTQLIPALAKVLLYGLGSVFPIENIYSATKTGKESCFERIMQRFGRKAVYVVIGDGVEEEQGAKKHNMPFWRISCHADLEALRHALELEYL
# Target sequence (Q15475 whole entry, looked up): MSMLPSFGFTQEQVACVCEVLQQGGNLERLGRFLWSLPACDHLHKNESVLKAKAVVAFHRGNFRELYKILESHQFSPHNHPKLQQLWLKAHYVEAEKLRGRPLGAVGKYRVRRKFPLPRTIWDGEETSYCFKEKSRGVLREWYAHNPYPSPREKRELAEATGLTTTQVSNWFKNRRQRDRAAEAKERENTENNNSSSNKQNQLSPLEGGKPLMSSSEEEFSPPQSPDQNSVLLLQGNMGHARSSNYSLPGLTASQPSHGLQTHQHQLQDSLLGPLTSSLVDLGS
#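 AlphaScreen with GST-Six1 and His-Eya2 (5X mix: 250 nM and 500 nM), glutathione donor and nickel acceptor beads; buffer 50 mM Tris pH 8.0, 300 mM NaCl, 1 mM TCEP; 1 h at 37 C in the dark.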
# TRPML1 agonist: activates the human TRPML1 channel. AID 624414. TRPML1-expressing cells, Ca2+ dye fluorescence, FDSS; host cell line not named in the record; reference of the full effect not given here. activation, % (no concentration beside the values). 410,000 tested, 0.12% active; in the data active = activation above about 50%; inconclusive = about 30% to 50%; inactive = below about 30%; note: 0% is about no effect; the text of the record puts the active cut at 80%
#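 Tetracycline-induced TRPML1-DL cells are seeded and incubated overnight before loading with a no-wash Ca2+ dye and quencher. Agonist activity is taken from the 110 s fluorescence read following compound pin-transfer on an FDSS, before EC80 54-4 challenge.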
# D2 potentiator: potentiates the human D2 dopamine receptor allosterically; potentiation, % (concentration not given with the values); P14416; DiscoveRx D2 beta-arrestin cells, luminescence, 90 min; 100% = 57 uM dopamine signal; 360,000 tested, 0.23% active; active = potentiation of 50% or more; inconclusive = 30% to 50%; inactive = 30% or less;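 note: compound concentration not given in the record; tested on top of an EC20 dose of dopamine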
#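 PathHunter D2 cells, attached overnight at 37 deg C, received compound in DMSO plus dopamine at EC20 (50 nM final) for 90 min at 37 deg C. Beta-arrestin recruitment was read as luminescence after 1 h with detection reagent at ambient temperature.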
# TRPML1 blocker: human mucolipin-1 channel inhibition; Q9GZU1; activity change, negative = inhibition, % (concentration not given with the values); TRPML1-inducible cells, Ca2+ dye fluorescence, FDSS; stronger effect = lower value; inhibition of EC80 agonist-evoked calcium signal; AID 624415; 390,000 tested, 0.02% active; in the data active means activity change below about -50%; inconclusive means about -30% to -50%; inactive means above about -30%;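 note: stimulus is agonist 54-4 at its EC80 concentration; % is set by controls: 0 for no effect and ±100 for the full control effect; compound concentration not given in the record; the text of the record puts the active cut at -80%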
#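 TRPML1-DL cells, Tet-induced overnight (~16 h, 37 °C) at 1,500 cells/well, were loaded with Ca8 no-wash dye plus quencher for 45-90 min at room temperature. Compounds were pinned during FDSS kinetic reading; agonist 54-4 at EC80 (4 uM final) then added.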
# PINK1 modulator: modulators of PINK1 expression | AID 624263 | 410,000 tested, 0.2% active | Potency, µM (highest dose often 76.6 µM), for inactives: top-dose activation (PINK1 increase), hits mostly activators | PINK1 immunofluorescence, high-content cytometry, 24 h; active = well fitted activation curve with a large enough effect; inconclusive = small, poorly fitted or top-dose-only effect; inactive = flat fitted curve, though single readings scatter; cell line not stated here;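 note: potency is the fitted concentration of half-maximal effect; % of control where 0% means no effect; nearly all actives have a fitted effect of over 65% in size; a mitochondrial uncoupler was the plate control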
#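 Stable cell line, 250 cells/well, 12 h attachment; compounds pinned at 5 concentrations, 24 h; CCCP control. Fixed with nuclear dye, primary antibodies 12 h at 10 degrees C, secondary plus cell stain; laser-scanning cytometer read.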
# D2 ag: human D2 receptor agonism in beta-arrestin assay. P14416. DiscoveRx PathHunter D2 beta-arrestin, luminescence, 90 min; 100% = 57 uM dopamine signal. activation, % (concentration not given with the values). 360,000 tested, 0.084% active; in the data active = activation above about 40%; inconclusive = about 15% to 40%; inactive = below about 15%; note: compound concentration not given in the record; the text of the record calls up to 30% inactive
#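 Agonist mode: compounds alone added to overnight-plated D2 PathHunter cells for 90 min at 37 C, with 57 uM final dopamine (EC100) defining full response. Beta-arrestin recruitment detected by chemiluminescent reagent, read after 1 h at ambient temperature.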
# * hit, by the source's call; u = inconclusive; x = not tested or not shown; & = joins results of further samples; [ ] = dose if it differs, or a comment. A portion of the library; count on the stated rates, not on these rows.
SMILES,Six1-Eya2 inh,TRPML1 agonist,D2 potentiator,TRPML1 blocker,PINK1 modulator,D2 ag
FC(F)(F)c1ccc2c(c1)ncn2C1CCN(Cc2nnnn2C2CCCCC2)CC1,-1,0.1,-10,-3,-1.3%,0.8
COC(=O)C1=C(c2ccc(OCc3ccccc3)cc2)C[C@@H]2CC[C@H]1N2C(=O)NCc1cccc(C(F)(F)F)c1,-3,0.8,-14,-7,0.7%,-3.1
O=C1NC(=S)N(c2ccc(F)cc2)C(=O)/C1=C/c1ccccc1O,2,-0.6,-1,-13,2.0%,-2.0
CCC1C2Cc3ccc(O)cc3C1(CC)CCN2C (stereo not given),6,0.0,-19,-17,0.3%,-3.5
O=C1Nc2ccccc2Oc2ccccc21,-4,0.0,-9,11,-1.2%,-1.1
CCC(=NCC1CCCO1)c1c(O)n(-c2ccccc2)c(=O)[nH]c1=O (stereo not given),12,0.1,-9,1,1.5%,-5.2
O=C([O-])c1ccc(-[n+]2c(-c3ccccc3)cc(-c3ccccc3)cc2-c2ccccc2)cc1,-6,-0.2,-9,-3,-0.1%,2.4
Cc1ccc(S(=O)(=O)N(C)CCCC(=O)N2CCN(c3ccccn3)CC2)cc1,3,2.0,-1,26,6.1%,-1.4
O=c1cccc2n1CC1CC2CN(Cc2cccc(Cl)c2Cl)C1 (stereo not given),-5,0.0,-17,-7,-2.5%[38.3 µM],-2.0
COc1cc2occc2c2oc(=O)ccc12,-1,-0.8,-23,-4,0.2%&4.6%,0.0
COc1cc(CNCCc2ccc3c(c2)OCO3)ccc1O,-2,1.0,-13,14,-0.6%,0.0
COc1cccc(CNCCc2c[nH]c3ccccc23)c1OC,2,-0.6,-26,11,2.4%,-3.0
CCc1nc2ccc(Br)cc2c(=O)n1-c1ccccc1C(F)(F)F,7,-0.5,-15,4,5.3%,0.1
COc1ccc(C(=O)OC2C[C@H]3CC[C@H](C2)N3C)cc1OC (stereo not given in full),-6,-0.5,0,3,4.6%,-4.7
COc1ccc(-n2c(O)c(C(C)=NCCN3CCNCC3)c(=O)[nH]c2=O)cc1,9,-0.4,4,-19,1.6%,0.7
Nc1ccc(N2CCN(Cc3ccccc3Cl)CC2)c(Cl)c1,-20,-0.6,-11,13,-1.6%,-2.8
Cc1ccc2c(c1N)C(=O)c1ccccc1C2=O,-9,1.9,-5,1,0.2%,-4.2
CCOC(=O)CC1c2ccccc2-n2nncc2CN1Cc1ccc(OC)cc1 (stereo not given),0,1.6,-5,13,0.3%,-0.1
CCC1CN1P(=O)(c1ccccc1)N1CC1CC (stereo not given),0,0.0,12,-5,0.8%,-2.8
O=c1[nH]c(=O)n(Cc2ccc(F)cc2)c(O)c1C=Nc1ccc(Cl)cc1,7,1.2,-2,8,-1.9%,-0.1
C[n+]1ccc(-c2cc[n+](C)cc2)cc1,2,2.6,-1,-4,1.3%,10
COc1cc(CNCCc2c[nH]c3ccccc23)cc(OC)c1OC,-13,-1.0,-25,-2,3.8%,2.8
O=P(OCC(F)(F)C(F)F)(N1CCCCC1)N1CCCCC1,5,1.6,-5,-11,2.1%,-0.7
Cc1ccc(-n2c(O)c(/C=N/NC(=O)c3ccncc3)c(=O)[nH]c2=O)cc1C,-27,-0.1,-9,-3,2.1%,3.4
Cc1ccsc1C(=O)C1CCCN(Cc2cc(C(C)C)n[nH]2)C1 (stereo not given),-3,0.5,-16,-20,-0.3%,0.3
S=C1CN=C(c2ccccc2)c2cc(Cl)ccc2N1,-5,1.0,-21,0,1.4%,-4.1
CCOC(=O)[C@]12Cc3cc(C)ccc3[C@H]1N(C)C(=O)c1cc(OC)ccc12,2,-0.5,x,x,0.4%,x
COc1ccc(-c2nn(CCC#N)cc2C(=O)Nc2cccc([N+](=O)[O-])c2)cc1OC,2,1.0,-5,22,0.5%,-4.3
Cc1ccnc(-n2c(C)cc(/C=C3\C(=O)NC(=S)N(C)C3=O)c2C)c1,-5,0.3,4,1,14%,-2.4
COc1ccc(CCn2c(O)c(C=NCCCN(C)C)c(=O)[nH]c2=O)cc1OC,2,-0.1,-8,5,-0.1%,-2.4
COCCNC(=O)Cn1cc(/C=C2\C(=O)NC(=O)N(c3cccc(C)c3C)C2=O)c2ccccc21,6,-0.9,-1,-14,2.9%,-1.0
COC(=O)C1=C(c2ccc(OC(F)(F)F)cc2)C[C@@H]2CC[C@H]1N2C(=O)NCCNC(C)=O,4,0.1,-11,11,-1.4%,0.0
CC1=CC(C)C(COC(N)=O)(COC(N)=O)C(C)C1 (stereo not given),14,-0.7,-1,11,-3.5%,4.9
c1cncc(CNCCc2ccc3c(c2)OCO3)c1,-3,x,4,x,4.6%,-4.6
Nc1cc(Cl)c2nonc2c1[N+](=O)[O-],-12,0.0,-26,-3,0.4%,-2.0
Nc1ccc(CC(N)c2csc(Nc3ncccn3)n2)cc1 (stereo not given),-67*,0.6,-15,-5,0.2%,-5.5
COc1ccc(-c2nc3ccccc3c(=O)n2-c2cccnc2)cc1,3,-0.4,-18,-2,29%[38.3 µM],-1.9
CC(Cc1ccccc1)NC(=O)CN1CCCC1=O (stereo not given),-7,-0.4,-5,-6,-1.9%,-0.6
Cc1ccccc1C(=O)N1CC1C (stereo not given),-1,0.9,-3,-12,0.8%,-0.5
CC(=O)OC[C@]12CCC(C)=C[C@H]1O[C@@H]1[C@H](O)[C@@H](OC(C)=O)[C@@]2(C)[C@]12CO2,5,x,-44,x,-1.1%,-6.5
O=C1CCCC2=C1C(c1cccnc1)Nc1ccccc1N2 (stereo not given),7,1.0,0,-8,-2.1%,0.7
Cc1nc2ncnn2c(C)c1CCC(=O)N1CCC2(CC1)OCCO2,6,-0.9,1,-4,u,-1.2
CCCCOC(=O)C1=C(N)OC2=C(C(=O)CCC2)[C@]12C(=O)Nc1ccccc12,10,0.1,-22,5,2.0%,-2.6
N=Cc1c(O)n(-c2ccc(C34CC5CC(CC(C5)C3)C4)cc2)c(=O)[nH]c1=O,1,0.3,11,16,3.7%,-2.8
O=C(NCC1=C(c2cccc3ccccc23)C[C@@H]2CC[C@H]1N2Cc1ccco1)c1cccnc1,-10,0.0,-6,13,2.1%,-8.2
Cc1ccc2c(c1)C1CN(C)CCC1N2C(=O)Cn1nnc(-c2ccccc2F)n1 (stereo not given),2,-0.8,-4,0,0.8%,-3.5
COC(=O)C1=C(c2ccc3ccccc3c2)C[C@@H]2CC[C@H]1N2C(=O)NC1CC1,-3,0.1,-13,16,-0.3%,0.2
CC1=C(C(=O)O)N2C(=O)[C@@H](NC(=O)CCCC(=O)O)[C@H]2SC1,-2,x,-32,x,0.1%,-6.3
CCOc1ccc(N2C(=O)NC(=O)/C(=C/c3cnc(SC)nc3)C2=O)cc1,7,0.0,-2,6,-0.2%,-2.0
C=CCn1c(O)c(/C(C)=N/N2CCCCC2)c(=O)[nH]c1=O,3,0.1,-4,15,0.9%,-4.2

# Continued:
SMILES,Six1-Eya2 inh,TRPML1 agonist,D2 potentiator,TRPML1 blocker,PINK1 modulator,D2 ag
Cc1ccc(CN2CCCC(C(=O)c3ccc4c(c3)OCO4)C2)cc1C (stereo not given),-7,x,-33,x,12%,-4.0
COc1cc2ccc(=O)oc2c2ccoc12,-20,-0.4,-36,0,0.6%&1.0%,0.0
CCC(=NCCCO)c1c(O)n(-c2ccc(OC)cc2)c(=O)[nH]c1=O,26,1.4,-5,21,-1.3%,-0.7
C[C@H]1CN([C@@H](C)CO)C(=O)CCCn2nncc2CO[C@H]1CN(C)C(=O)Oc1cccc2ccccc12,-1,-0.5,-11,-3,1.2%,-6.0
COC(=O)C1=C(c2ccc(C(C)=O)cc2)C[C@@H]2CC[C@H]1N2C,2,0.3,-8,7,-0.7%,-1.2
CC1=NNC(=O)C1Br (stereo not given),4,-0.5,14,-5,4.2%,-0.6
CCC(C)NC(=O)c1c(N)n(CCCOC)c2nc3ccccc3nc12 (stereo not given),24,-0.8,-2,-7,0.9%,-1.3
O=C1C(=Cc2ccccc2)N2CCC1CC2,5,-1.1,-6,u,2.2%,0.1
CC(Cc1ccccc1)[n+]1cc(/N=C(\[O-])N(C)C)on1 (stereo not given),0,0.1,-4,-3,-0.9%,-2.9
COC(=O)c1cc(C(O)(C(=O)OC)C(F)(F)F)c(/N=C/N(C)C)s1 (stereo not given),1,0.5,11,-9,x,-0.5
Cc1cc(OCC(=O)N[C@@H](Cc2ccccc2)C(=O)O)c2c3c(c(=O)oc2c1)CCCC3,-9,x,-33,x,0.7%,-3.4
O=C(Cc1ccccc1)N1CCN(Cc2ccc([N+](=O)[O-])cc2)CC1,2,1.3,-5,8,0.0%,-3.4
CCC(=NCc1cccnc1)c1c(O)n(-c2ccc(Cl)cc2)c(=O)[nH]c1=O,0,-0.4,-9,6,1.4%,-3.9
COc1ccc(-n2c(O)c(/C(C)=N/N3CCCCCC3)c(=O)[nH]c2=O)cc1,1,-0.8,-5,56,-1.1%,0.8
C=C1[C@@H](C)[C@H]2[C@H](Cc3ccccc3)NC(=O)[C@]23OC(=O)/C=C/[C@H](O)CCC[C@@H](C)C/C=C/[C@H]3[C@@H]1O,-2,-0.3&-0.1,x,-10&7,u,11
COc1ccc2c(c1)C13CCCC[C@@H]1C(C2)N(C)CC3 (stereo not given in full),2,-0.1,-5,12,2.0%,-4.9
O=C(/C=C/C=C/c1ccccc1)CC1(O)C(=O)Nc2ccccc21 (stereo not given),-1,-0.2,-7,-22,7.9%,-1.5

# Another view of part of the listing above.
# Results follow in this order: Six1-Eya2 inh, TRPML1 agonist, D2 potentiator, TRPML1 blocker, PINK1 modulator, D2 ag
- Cc1ccnc(-n2c(C)cc(/C=C3\C(=O)NC(=S)N(C)C3=O)c2C)c1
 : -5, 0.3, 4, 1, 14%, -2.4
- CC(Cc1ccccc1)NC(=O)CN1CCCC1=O (stereo not given)
 : -7, -0.4, -5, -6, -1.9%, -0.6
- COc1ccc2c(c1)C13CCCC[C@@H]1C(C2)N(C)CC3 (stereo not given in full)
 : 2, -0.1, -5, 12, 2.0%, -4.9
- COC(=O)C1=C(c2ccc3ccccc3c2)C[C@@H]2CC[C@H]1N2C(=O)NC1CC1
 : -3, 0.1, -13, 16, -0.3%, 0.2
- Cc1ccc(S(=O)(=O)N(C)CCCC(=O)N2CCN(c3ccccn3)CC2)cc1
 : 3, 2.0, -1, 26, 6.1%, -1.4
